BmaI1 enzyme – BmaI1 acyl-homoserine lactone synthase inhibition – biochemical, fluorescence intensity, with counterscreen (AID 720554); BmaI1 enzyme assay, fluorescence intensity; stronger effect = higher value; test concentration not given here; a few actives read low; strong numbers were not always called active; inhibition, %; 12,000 tested, 0.4% active;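 active = both replicates within 2 robust z-scores of the inhibited control and a quiet counterscreen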;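 note: 0% = uninhibited enzyme and 100% = inhibited control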
BmaI1 enzyme counterscreen – further read-out of BmaI1 enzyme, marked with its call; inhibition, %; measured here: counterscreen; design of the counterscreen not given here;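 first of two replicates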
An asterisk follows results filed as active. A portion of the library; count on the stated rates, not on these rows.

SMILES	BmaI1 enzyme	BmaI1 enzyme counterscreen
N/C(=N\O)c1cccc(NC(=O)C2CC2)c1	47	38
C=CCNc1nc(C(=O)OCC(=O)N(C2CCCCC2)C2CCS(=O)(=O)C2)cs1 (stereo not drawn)	16	9
C[C@@H](C(=O)Nc1ccccc1N1CCOCC1)N1C(=O)C2CC=CCC2C1=O (stereo partly drawn)	14	7
COc1ccc(Cc2nnc3n2N=C(c2ccc(CNC(C)=O)o2)CS3)cc1	16	6
CCN(C(=O)Cn1ncc(Cl)c(Cl)c1=O)C1CCS(=O)(=O)C1 (stereo not drawn)	12	6
CCN(CC(=O)NCc1cccs1)C(=O)c1cccc(S(=O)(=O)N(CC)CC)c1	2	0
NS(=O)(=O)c1cc(C(=O)O)cs1	3	-4
N#CCCN(Cc1cccnc1)C(=S)NC1CCCCC1	4	2
COC(=O)CNC(=O)c1ccc(C)c(C)c1	2	0
CCOC(=O)c1c(C)[nH]c(C2=NNC(=NC)SC2)c1C	64	40
CCOC(=O)c1oc2ccc(Br)cc2c1COC(=O)CN1C(=O)C2CC=CCC2C1=O (stereo not drawn)	12	6
C[N+]1(CCC(C(N)=O)(c2ccccc2)c2ccccc2)CCCCC1	5	8
O=C(N/N=C1\CCc2ccccc21)c1ccc(O)cc1	12	24
CCOC(=O)C1CCN(C2c3ccccc3-c3ccccc32)CC1	12	1
CCC(C)N(C(=O)CSc1nc(NC)c2ccccc2n1)C1CCS(=O)(=O)C1 (stereo not drawn)	6	-7
O=c1c2ccccc2nnn1CSc1ccc(F)cc1	-3	-2
CCOc1ccc(NC(C)C(=O)NC2(C#N)CCCCC2)cc1 (stereo not drawn)	4	-2
CC1CC(C)CN(C(=O)CSc2nncn2-c2cccc(Cl)c2)C1 (stereo not drawn)	7	0
CCOc1ccc2cc(-c3csc(N)n3)c(=O)oc2c1	12	8
CC(C(=O)C(C#N)c1nc2ccccc2n1C)N1C(=O)c2ccccc2C1=O (stereo not drawn)	8	-1

Quoted at random: 3 compounds from above
SMILES	BmaI1 enzyme	BmaI1 enzyme counterscreen
COC(=O)CNC(=O)c1ccc(C)c(C)c1	2	0
O=c1c2ccccc2nnn1CSc1ccc(F)cc1	-3	-2
CC(C(=O)C(C#N)c1nc2ccccc2n1C)N1C(=O)c2ccccc2C1=O (stereo not drawn)	8	-1

(cont.)
SMILES	BmaI1 enzyme	BmaI1 enzyme counterscreen
CCN(C(=O)CCc1c(C)[nH]c(=O)c(C#N)c1C)c1nc2c(C)cccc2s1	16	16
O=C(CCc1nc2ccccc2c(=O)[nH]1)OCc1ccccc1	-2	-2
CC(=O)Nc1ccc2c(CSc3nnc(-c4cccs4)n3CC3CCCO3)cc(=O)oc2c1 (stereo not drawn)	-7	-8
COc1ccc(NC(=O)CNc2ccc(NC(C)=O)cc2)c(OC)c1	-52	-55
CC1CC(C)CN(S(=O)(=O)c2ccc(C(=O)NCc3ccco3)cc2)C1 (stereo not drawn)	8	7
Cc1cc(C)cc(NC(=O)[C@@H](NC(=O)c2ccco2)C(C)C)c1	14	10
N#CC1(NC(=O)COC(=O)CSc2nc3ccccc3o2)CCCCC1	25	6
O=C(NCCc1ccccn1)C1CC(=O)N(Cc2ccccc2Cl)C1 (stereo not drawn)	12	4
O=C(OCc1nnc(-c2ccccc2Br)o1)c1ccc2[nH]c3c(c2c1)CCCC3	14	0
CN(CC(=O)c1ccccc1Br)C1CCCCC1	12	10
N#Cc1cc(C(=O)c2ccccc2O)cn2c1nc1ccccc12	-14	-8
Cc1ccc(-n2c(SCCn3ccnc3)nnc2-c2ccc(Cl)cc2)cc1	16	2
CCCN(C(=O)c1ccc(S(=O)(=O)N2CCCC2)cc1)C1CCS(=O)(=O)C1 (stereo not drawn)	0	-9
COc1ccc(OCCSc2cccc[n+]2[O-])cc1	22	2
COc1cc(C(=O)N2CCN(CC(=O)Nc3ccc(Cl)c(C(F)(F)F)c3)CC2)cc(OC)c1OC	16	10
O=C(CSCCOc1ccccc1F)Nc1ccnn1C1CCCC1	18	12
COc1ccc(C2CC(c3ccccc3)=NN2C(=O)Cn2cnc3c2c(=O)n(C)c(=O)n3C)cc1 (stereo not drawn)	2	2
Cc1occc1-c1n[nH]c(=S)o1	62	32
O=C(Nc1ccc(Cl)cc1)Nc1csc(N2CCCCC2)n1	37	4
Cn1nnnc1SCC(=O)NN1C(=O)NC(C)(c2ccccc2)C1=O (stereo not drawn)	12	12
CC1Cc2ccccc2N1CC(=O)Nc1ccc(SC(F)F)cc1 (stereo not drawn)	30	-16
CCc1cc2c(NC(C)C(=O)O)ncnc2s1 (stereo not drawn)	10	4
O=C1OCCC1Sc1nc2ccccc2c(=O)n1Cc1ccco1 (stereo not drawn)	-9	-9
COc1ccccc1N(C)S(=O)(=O)c1ccc(C(=O)Oc2ccc(-c3nnco3)cc2)cc1	6	0
O=C(C1CCCCC1)N1N=C2/C(=C/c3ccco3)CCCC2C1c1ccco1 (stereo not drawn)	12	3
O=C1CCCCCN1Cc1n[nH]c(=S)o1	52	14
c1ccc(-n2nnnc2NCC(c2cccs2)c2c[nH]c3ccccc23)cc1 (stereo not drawn)	-10	8
Cc1cccc(C)c1NC(=O)CN1c2ccccc2CC1C (stereo not drawn)	50	-14
Cc1nc2sc(C(=O)NC3CCC(C)CC3)c(C)c2c(=O)[nH]1 (stereo not drawn)	6	-2
CCn1c(SCC(=O)Nc2ccc3[nH]c(=O)[nH]c3c2)nnc1-c1cccs1	28	40
C/C(=N\NC(=O)c1ccc(Cl)cc1)c1ccc(-n2ccnc2)cc1	15	24
N#Cc1ccc(C(=O)N2CCCSC2=NCc2ccccc2)cc1	6	3
CN(c1ccc(O)cc1)c1nc(S(=O)(=O)c2ccccc2)c(Cl)s1	26	8
Clc1cc2c(c3ncccc13)OCN(CC1CCCO1)C2 (stereo not drawn)	-93	-86
CCN(CCS(=O)(=O)c1ccc(Cl)cc1)Cc1nc2ccccc2c(=O)[nH]1	9	4
NCCc1ccc2c(c1)OCO2	-11	2
Brc1cc2c(cc1CSc1nnc(-c3c[nH]c4ccccc34)o1)OCO2	0	-1
CC(C)(C)N(Cc1ccccc1)C(=O)CSc1nc2ccccc2o1	8	0
Cc1cnc(NC(=O)CC(C)c2ccccc2)s1 (stereo not drawn)	2	-2
CCCn1c(N)c(C(=O)COC(=O)c2cccc(NC(=O)OC(C)(C)C)c2)c(=O)[nH]c1=O	-10	-7
Nc1nc(CCC(=O)OCc2c(F)cccc2Cl)nc(Nc2ccccc2)n1	16	8
O=C1CCC/C1=C\c1ccccc1	6	0
COc1ccccc1/C=N/n1c(SCC(=O)O)nnc1C1CCCCC1	5	2
c1ccc2[nH]c(-c3cscn3)nc2c1	-3	3
CSC(=C(C#N)C#N)N1CCCC1	2	4
N#Cc1ccc(OCC(O)CNCCC2=CCCCC2)cc1 (stereo not drawn)	8	3
Cc1ccc(-n2c3nc4ccccc4nc3c3c(=N)oc(C)nc32)cc1	10	4
CCOC(=O)c1oc2ccccc2c1N=Cc1c(O)n(CCOC)c(=S)[nH]c1=O	4	6
O=C(Cn1cc(C(F)(F)F)ccc1=O)N1CCc2ccccc21	5	4
COc1ccccc1NC(=O)C1=C(C)NC(=O)NC1c1ccco1 (stereo not drawn)	22	18
CCn1c(SC(C)C(N)=O)nnc1-c1cccs1 (stereo not drawn)	6	3
O=S(=O)(c1ccc2c(c1)CCCC2)N1CCNCC1	-12	-2
O=C(Cn1cnc2ccccc2c1=O)N1CCc2ccccc2C1	6	5
C/C(=N\NC(=O)c1nc(Cl)c(Cl)c(N)c1Cl)c1cc(O)ccc1O	63	26
O=c1cc(CSc2nnc3sc4ccccc4n23)c2ccc(Br)cc2o1	16	8
COC(=O)CSCc1csc(-c2ccc(OC)c(OC)c2)n1	18	8
Cc1ccc(NC(=O)COC(=O)C2CCC(=O)N2)c(S(=O)(=O)N2CCOCC2)c1 (stereo not drawn)	0	-2
Cc1noc(C)c1COc1ccc(C(=O)OCC(=O)Nc2sc3c(c2C(N)=O)CCC3)cc1	12	14
C[C@]12C=CC(=O)C=C1CC[C@@H]1[C@@H]2[C@@H](O)C[C@@]2(C)[C@H]1CC[C@]2(O)C(=O)COC(=O)CCC(=O)O	7	2
Cc1onc(-c2ccccc2)c1C(=O)OCc1cc(=O)n2cc(Br)ccc2n1	11	2
Remaining list, next part
SMILES	BmaI1 enzyme	BmaI1 enzyme counterscreen
COC(=O)c1ccc(CNC(=O)c2oc3ccc(OC)cc3c2C)cc1	14	0
O=C(C1CCCCC1)N1N=C2/C(=C/c3cccs3)CCCC2C1c1cccs1 (stereo not drawn)	10	7
Fc1ccccc1OCCSc1nnc2c(n1)[nH]c1ccccc12	14	17
CCN(Cc1nc2ccccc2c(=O)[nH]1)Cc1nc2ccc(Cl)cc2n1CCO	9	2
NS(=O)(=O)c1ccc(NC(=O)OCC(F)(F)F)cc1	-3	-5
N#CC(C#N)=Cc1ccc(OC(=O)c2cccs2)cc1	-2	-12
CCC(CO)n1c(SCc2ccc(C#N)cc2)nc2cc(OC)c(OC)cc2c1=O (stereo not drawn)	16	10
Cc1c(C#N)c(NC(=O)CN2CCCCC2C)n(Cc2ccco2)c1C (stereo not drawn)	38	-9
Cc1cc(SCC(=O)N(C)C2CCS(=O)(=O)C2)nc2ccccc12 (stereo not drawn)	2	10
O=C(COC(=O)C12CCC(=O)N1c1ccccc1S2)c1c[nH]c2ccccc12 (stereo not drawn)	-4	-8
CC(=O)NC(C(=O)Nc1nc(-c2ccc(C)s2)cs1)C(C)C (stereo not drawn)	17	18
O=C(Cn1cnc2ccccc2c1=O)c1ccc2c(c1)OCCO2	7	-2
O=C(Nc1ccncc1)c1ccc2c(c1)S(=O)(=O)c1ccccc1C2=O	4	3
O=c1[nH]c(=O)n(C2CC(O)C(CO)O2)cc1F (stereo not drawn)	-10	-4
O=C(COC(=O)c1ccccc1SCC(=O)N1CCCC1)Nc1nnc(-c2ccccc2)o1	42	4
CC(C)C(NC(=O)Cc1ccccc1)C(=O)N1CCN(c2cccc(Cl)c2)CC1 (stereo not drawn)	24	14
CN1CCC[C@H]1c1cccnc1	-4	-4
Cc1cc(/C=N/NC(=O)Cn2nnc(-c3ccccc3)n2)c(C)n1CC(C)C	10	2
COc1cc(/C=N/N2CC(=O)NC2=O)ccc1OCc1csc(C)n1	6	1
COC(=O)C(Cc1ccccc1)NC(=O)Nc1ccccc1OC (stereo not drawn)	3	10
COC(=O)c1cn(CC(=O)Nc2ccc(S(=O)(=O)NC3=NCCCCC3)cc2)c2ccccc12	15	6
Cc1cccn2c(=O)c3cc(C(=O)N(C)C)n(C)c3nc12	22	8
N#Cc1ccc(CONC(=O)C23CC4CC(CC(C4)C2)C3)cc1	16	11
CNCC(O)c1ccc(O)cc1 (stereo not drawn)	4	0
CC(C)c1ccc(CCN)cc1	12	8
CC(C)N(C(=O)CSc1nncn1-c1ccccc1)c1ccccc1	9	3
CCOc1ncccc1C(=O)Nc1cc(C(C)(C)C)ccc1OC	18	0
C/C(=N\NCc1cn2ccccc2n1)c1ccccc1	24	19
Cc1cc2nc(N3CCC(C)CC3)c3ccccc3n2n1	20	14
Cc1ccc(-c2csc(NC(=O)COC(=O)c3cccs3)n2)cc1	10	5
O=C1CCC2(C(=O)OCc3c(Cl)cccc3Cl)N1c1ccccc1C(=O)N2C1CC1 (stereo not drawn)	5	1
CC(C(=O)Nc1ccccc1)N(C)CCOc1ccccc1 (stereo not drawn)	8	-2
COc1ccc(NC(=O)c2cc(CN3C(=O)c4ccccc4C3=O)ccc2OC)cn1	20	14
CCCOc1ccc(/C=C(\C#N)C(=O)NC(N)=O)cc1OCC	-2	-2
CCOC(=O)C1CCCN(C2CC(=O)N(c3cc(Cl)ccc3OC)C2=O)C1 (stereo not drawn)	10	11
Cc1ccc(C(=O)NC(c2ccccc2)c2ccccc2)o1	2	2

Compounds shown so far with a thiophene ring, fused or not:
SMILES	BmaI1 enzyme	BmaI1 enzyme counterscreen
CCN(CC(=O)NCc1cccs1)C(=O)c1cccc(S(=O)(=O)N(CC)CC)c1	2	0
NS(=O)(=O)c1cc(C(=O)O)cs1	3	-4
CC(=O)Nc1ccc2c(CSc3nnc(-c4cccs4)n3CC3CCCO3)cc(=O)oc2c1 (stereo not drawn)	-7	-8
CCc1cc2c(NC(C)C(=O)O)ncnc2s1 (stereo not drawn)	10	4
c1ccc(-n2nnnc2NCC(c2cccs2)c2c[nH]c3ccccc23)cc1 (stereo not drawn)	-10	8
Cc1nc2sc(C(=O)NC3CCC(C)CC3)c(C)c2c(=O)[nH]1 (stereo not drawn)	6	-2
CCn1c(SCC(=O)Nc2ccc3[nH]c(=O)[nH]c3c2)nnc1-c1cccs1	28	40
CCn1c(SC(C)C(N)=O)nnc1-c1cccs1 (stereo not drawn)	6	3
Cc1noc(C)c1COc1ccc(C(=O)OCC(=O)Nc2sc3c(c2C(N)=O)CCC3)cc1	12	14
O=C(C1CCCCC1)N1N=C2/C(=C/c3cccs3)CCCC2C1c1cccs1 (stereo not drawn)	10	7
N#CC(C#N)=Cc1ccc(OC(=O)c2cccs2)cc1	-2	-12
CC(=O)NC(C(=O)Nc1nc(-c2ccc(C)s2)cs1)C(C)C (stereo not drawn)	17	18
Cc1ccc(-c2csc(NC(=O)COC(=O)c3cccs3)n2)cc1	10	5
